From PubChem
Mtb H37Rv = M. tuberculosis H37Rv growth inhibitors, H37Rv strain (AID 1626); M. tuberculosis H37Rv growth inhibition; higher % means a stronger effect; one-dose inhibition, % at 10 µM; IC50 in µM for titrated hits; 220,000 tested, 0.95% active;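 active = confirmed in a dose series; inconclusive = inhibition above 80% but not taken into the dose series; inactive = below 80% or under 30% at every dose of the series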;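 note: bacteria incubated seven days before Alamar blue readout; 0% = bacteria only wells and 100% = bacteria with antibiotic wells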
Arbovirus anti = antivirals against arbovirus infection. 200,000 tested, 0.37% active. arbovirus infection cell-based antiviral screen. AID 1251. inhibition, % at 10 µM;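 active = inhibition from about 30%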;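 note: bluetongue infection of BSR cells; cell survival read as ATP light after 72 h; 0% = infected wells without compound and 100% = uninfected wells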
RecA splice inh = Mtb RecA intein splicing inhibition. AID 2221. 290,000 tested, 0.75% active. inhibition, %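 (about 9 µM by stock and volumes)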. P9WHJ3. cell-free RecA intein splicing, fluorescence; in the data active = inhibition above about 30%; inconclusive = no clear call, values can overlap the other calls;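 note: 0% = vehicle wells and 100% = reference inhibitor control wells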
Target sequence (P9WHJ3 whole entry, looked up, canonical isoform): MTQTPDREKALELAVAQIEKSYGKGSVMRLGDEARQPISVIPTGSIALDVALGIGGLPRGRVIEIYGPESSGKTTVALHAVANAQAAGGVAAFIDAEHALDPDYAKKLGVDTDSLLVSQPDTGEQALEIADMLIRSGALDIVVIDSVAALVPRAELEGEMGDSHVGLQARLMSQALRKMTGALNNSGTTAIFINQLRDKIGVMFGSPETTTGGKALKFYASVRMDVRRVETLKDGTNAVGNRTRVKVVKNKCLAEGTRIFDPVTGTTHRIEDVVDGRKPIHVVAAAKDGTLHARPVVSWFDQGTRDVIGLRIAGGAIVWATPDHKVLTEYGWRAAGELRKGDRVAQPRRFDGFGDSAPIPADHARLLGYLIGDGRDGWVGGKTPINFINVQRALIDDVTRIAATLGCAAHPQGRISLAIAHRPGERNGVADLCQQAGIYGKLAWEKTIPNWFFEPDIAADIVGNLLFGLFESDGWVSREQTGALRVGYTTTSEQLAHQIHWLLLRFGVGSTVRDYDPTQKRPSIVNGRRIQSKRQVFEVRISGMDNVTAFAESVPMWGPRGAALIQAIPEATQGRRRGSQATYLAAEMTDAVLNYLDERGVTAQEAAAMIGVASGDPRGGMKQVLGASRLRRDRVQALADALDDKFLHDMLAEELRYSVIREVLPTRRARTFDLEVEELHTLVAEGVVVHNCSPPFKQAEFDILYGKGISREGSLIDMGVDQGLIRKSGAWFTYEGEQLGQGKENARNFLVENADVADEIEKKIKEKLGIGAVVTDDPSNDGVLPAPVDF
Mtb betalactam = beta-lactam sensitization of Mtb H37Rv; AID 434955; 330,000 tested, 0.27% active; M. tuberculosis H37Rv growth with meropenem, percent inhibition; hits of this screen are not shown here; inhibition, % at 25 µM;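 active = about 74% or more and at least 40 points above the plate without the antibiotic, then above 30% in a dose series; inconclusive = first-round hits that could not be retested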;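 note: growth measured after seven days incubation then overnight dye step; 0% = bacteria only wells and 100% = bacteria with antibiotic; twin plates without the antibiotic show which effects depend on it; some results filed as inactive read as strong as hits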
YopH inh = blocks Yersinia enterocolitica YopH tyrosine phosphatase; 140,000 tested, 0.16% active; inhibition, %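 (about 10 µM by stock and volumes)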; fluorescence Ex485/Em525;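 active = inhibition of 50% or more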;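 note: controls were vehicle for no effect and minimum signal wells for full effect; inactives centre near -20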
Arbovirus anti repeat = recorded beside Arbovirus anti, whose call it bears; inhibition, %; measured here: 10K subset replicate screen; many hits read low in the repeat;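 first of two repeat runs on a subset; 0% = infected and 100% = uninfected wells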
* = called active by the depositor; ? = inconclusive; . = no result given. An excerpt, so the mix of outcomes need not match the whole.

Start of the listing, in advance, 19 compounds:
SMILES	Mtb H37Rv	Arbovirus anti	RecA splice inh	Mtb betalactam	YopH inh	others
CCOC(=O)c1oc2ccccc2c1CN1CCN(C)CC1	5%	-1	-2.4	3	-30
COc1ccc(S(=O)(=O)Cc2ccc(C(=O)NC(C)C)o2)cc1	1%	11	-0.2	-2	-23	Arbovirus anti repeat=4
CCOC(=O)c1c(C)[nH]c(C)c1S(=O)(=O)N(C)Cc1ccco1	.	.	-1.7	3	.
Cc1ccc(C(=O)NCCCNCCCNC(=O)c2ccc(C)nc2)cn1	1%	0	-7.1	0	-158
COc1ccc(OC)c(-c2[nH]nc3c2C(c2ccco2)C(C#N)=C(N)O3)c1 (configuration not stated)	-5%	-5	70*	8	-10
N/C(Cn1cncn1)=N\OC(=O)c1ccc(Cl)cc1Cl	5%	2	-1.1	-2	.
O=C(Nc1ccc(Cl)cc1)c1cncs1	.	.	-0.6	-1	.
CC(=O)Nc1cccc(C(=O)OCC(=O)Nc2c(C)nn(-c3ccccc3)c2C)c1	.	.	-1.7	-6	.
Cc1nn(-c2ccccc2)nc1CNC(=O)CC(C)(C)C	-10%	.	-1.3	3	.
C#CCOC(=O)C1C2C=CC(C2)C1C(=O)O (configuration not stated)	7%	3	-0.3	6	-24	Arbovirus anti repeat=1
O=C(c1ccnc(Cl)c1)N1CCCC(N2CCN(c3ccccc3F)CC2)C1 (configuration not stated)	.	.	-0.3	-1	.
C=CCn1cc(C(=O)NCCOC)c(=O)c2cc(S(=O)(=O)N3CCCCCC3)ccc21	.	.	-0.4	-3	.
CC1=CCC2C(=O)N(c3ccc(C(=O)Nc4ccccc4Cl)cc3)C(=O)C2C1 (configuration not stated)	.	.	-3.1	0	.
COc1ccc(C2=NO[C@@H]3C(=O)N(c4c(C)cccc4C)C(=O)[C@H]23)cc1OC	-8%	7	7.4	-22	-35
Cc1nc2cc(Cl)c([N+](=O)[O-])cc2s1	8%	-1	1.4	-3	.
Cc1ccc(S(=O)(=O)CCC(=O)OCC(=O)c2ccc(F)cc2)cc1	.	.	-1.3	-2	.
COc1nccc(-c2ccc(F)cc2)c1C#N	-7%	-5	1.8	4	.
Cn1ccnc1SCC(=O)c1ccc(F)cc1	.	.	0.1	-8	.
CC(C)(C)c1ccc(C(=O)N2CCN(CCNC(=O)C(=O)NCc3ccccc3)CC2)cc1	6%	4	0.5	8	-13

This part in full, from the first entry:
SMILES	Mtb H37Rv	Arbovirus anti	RecA splice inh	Mtb betalactam	YopH inh	others
CCOC(=O)c1oc2ccccc2c1CN1CCN(C)CC1	5%	-1	-2.4	3	-30
COc1ccc(S(=O)(=O)Cc2ccc(C(=O)NC(C)C)o2)cc1	1%	11	-0.2	-2	-23	Arbovirus anti repeat=4
CCOC(=O)c1c(C)[nH]c(C)c1S(=O)(=O)N(C)Cc1ccco1	.	.	-1.7	3	.
Cc1ccc(C(=O)NCCCNCCCNC(=O)c2ccc(C)nc2)cn1	1%	0	-7.1	0	-158
COc1ccc(OC)c(-c2[nH]nc3c2C(c2ccco2)C(C#N)=C(N)O3)c1 (configuration not stated)	-5%	-5	70*	8	-10
N/C(Cn1cncn1)=N\OC(=O)c1ccc(Cl)cc1Cl	5%	2	-1.1	-2	.
O=C(Nc1ccc(Cl)cc1)c1cncs1	.	.	-0.6	-1	.
CC(=O)Nc1cccc(C(=O)OCC(=O)Nc2c(C)nn(-c3ccccc3)c2C)c1	.	.	-1.7	-6	.
Cc1nn(-c2ccccc2)nc1CNC(=O)CC(C)(C)C	-10%	.	-1.3	3	.
C#CCOC(=O)C1C2C=CC(C2)C1C(=O)O (configuration not stated)	7%	3	-0.3	6	-24	Arbovirus anti repeat=1
O=C(c1ccnc(Cl)c1)N1CCCC(N2CCN(c3ccccc3F)CC2)C1 (configuration not stated)	.	.	-0.3	-1	.
C=CCn1cc(C(=O)NCCOC)c(=O)c2cc(S(=O)(=O)N3CCCCCC3)ccc21	.	.	-0.4	-3	.
CC1=CCC2C(=O)N(c3ccc(C(=O)Nc4ccccc4Cl)cc3)C(=O)C2C1 (configuration not stated)	.	.	-3.1	0	.
COc1ccc(C2=NO[C@@H]3C(=O)N(c4c(C)cccc4C)C(=O)[C@H]23)cc1OC	-8%	7	7.4	-22	-35
Cc1nc2cc(Cl)c([N+](=O)[O-])cc2s1	8%	-1	1.4	-3	.
Cc1ccc(S(=O)(=O)CCC(=O)OCC(=O)c2ccc(F)cc2)cc1	.	.	-1.3	-2	.
COc1nccc(-c2ccc(F)cc2)c1C#N	-7%	-5	1.8	4	.
Cn1ccnc1SCC(=O)c1ccc(F)cc1	.	.	0.1	-8	.
CC(C)(C)c1ccc(C(=O)N2CCN(CCNC(=O)C(=O)NCc3ccccc3)CC2)cc1	6%	4	0.5	8	-13
COc1ccc([C@H]2[C@@H](C#N)[C@H](C#N)N3CCCN23)cc1	-5%	-1	-0.2	-6	27

Sorted by heavy-atom count (lowest first): some entries from above.
SMILES	Mtb H37Rv	Arbovirus anti	RecA splice inh	Mtb betalactam	YopH inh	others
CC1=CCC2C(=O)N(c3ccc(C(=O)Nc4ccccc4Cl)cc3)C(=O)C2C1 (configuration not stated)	.	.	-3.1	0	.
C=CCn1cc(C(=O)NCCOC)c(=O)c2cc(S(=O)(=O)N3CCCCCC3)ccc21	.	.	-0.4	-3	.
CC(C)(C)c1ccc(C(=O)N2CCN(CCNC(=O)C(=O)NCc3ccccc3)CC2)cc1	6%	4	0.5	8	-13

Additional entries:
SMILES	Mtb H37Rv	Arbovirus anti	RecA splice inh	Mtb betalactam	YopH inh	others
COc1ccc(CCNc2ccc(C(=O)O)cc2[N+](=O)[O-])cc1OC	1%	9	-1.3	5	.
C/C(=N\NC(=O)c1cccc(Br)c1)c1ccc(Br)cc1	-10%	-10	0.1	6	-1
O=S(=O)(NCc1ccccc1)NCc1ccccc1F	.	10	-0.6	6	.
Cc1cc(C)[n+](CCCC[n+]2c(C)cc(C)cc2C)c(C)c1	.	.	-1.5	-11	.
Cc1cc(Cl)c2c(c1)[C@]1(C(=O)N2)[C@@H]2C(=O)N(Cc3ccccc3)C(=O)[C@@H]2[C@@H]2CCCN21	1%	-17	7.2	-2	-35
O=C(NCCc1ccncc1)Nc1cccc(Cl)c1	3%	2	-1.0	5	-11
CC(=O)Nc1ccc(NC(=O)c2ccc(Cl)nc2)cc1	4%	.	-3.0	-10	.
NNC(=O)[C@H](Cc1ccccc1)NC(=O)Nc1ccc2c(c1)OCCO2	-8%	.	-1.9	-7	.
Cc1cc(Cl)cc(Br)c1OCCCCn1cncn1	-10%	1	1.0	-9	-25
COc1cc(S(=O)(=O)N2CCOCC2)ccc1NC(=O)c1cc2c(s1)CCC2	-13%	-16	0.8	-4	-28
CCCCC(=O)N(c1ccc(OC)cc1)C1C=CS(=O)(=O)C1 (configuration not stated)	7%	-1	-0.3	-5	-21
N#CC(=C1CCCC1)c1nc(-c2ccccc2O)cs1	12%	1	8.5	51	-48
CCOc1ccc(C(=O)NC(=S)Nc2ccc(N3CCCCC3)cc2)cc1[N+](=O)[O-]	?	11	1.5	50	-21
Cc1[nH]c(=O)[nH]c(=O)c1S(=O)(=O)N1CCOCC1	-6%	3	-2.9	0	8
CC1CCCC(NC(=O)CSc2nccn2C)C1C (configuration not stated)	-2%	-4	-2.3	-12	-17
CCOC(=O)CSc1nnc(CNC(=O)c2cccs2)n1CCc1ccccc1	1%	4	-1.5	.	-44
COC(=O)Nc1ccc(C)c(NC(=O)OC)c1	1%	3	1.2	8	-34
O=C(NC12CC3CC(CC(C3)C1)C2)N1CCN(c2ccccn2)CC1	-7%	1	5.7	8	-9
CC1CN(c2nc3ccccc3nc2C(C#N)C(=O)NCc2ccc3c(c2)OCO3)CC(C)O1 (configuration not stated)	-15%	6	-19	-9	-10
COc1ccccc1NC(=O)CSc1nnc(CC(=O)Nc2ccccc2C)n1C	.	.	-0.1	-4	.
CCCOC(=O)c1ccc(OCC(O)Cn2c(C)nc3ccccc32)cc1 (configuration not stated)	.	4	2.9	.	11	Arbovirus anti repeat=9
Cc1cccc(NC(=O)CCN2C(=O)C3C4C=CC(C4)C3C2=O)n1 (configuration not stated)	-2%	5	0.5	2	-43
Cc1ccc(N2C(=O)NC(=O)/C(=C\c3cc(C)n(-c4cc(C(=O)O)cc(C(=O)O)c4)c3C)C2=O)cc1	.	.	-1.6	-2	.
CCc1c(C)nc2c(OC)cccc2c1Cl	-1%	-12	6.2	2	.
CC(NC(=O)c1ccc(Br)cc1)C(=O)NC1=NCCS1 (configuration not stated)	6%	-3	-1.2	0	.
CCOC(=O)Cn1c(C)c(Br)c(=O)c2cccc(C)c21	-10%	5	4.0	100	-23
COc1ccc(CN2CCNC(=O)C2CC(=O)N(C)Cc2nccs2)cc1OC (configuration not stated)	.	.	5.2	3	.
CC1(C)CC(CCNCc2ccc3c(c2)OCO3)(Cc2ccccc2)CCO1 (configuration not stated)	2%	-17	5.0	6	.
CCOc1ccccc1N(CC(=O)NC1CCCC1)C(=O)CCC(=O)Nc1cc(C)on1	-3%	-1	-0.4	0	-14
CCOC(=O)c1c(NC(=O)Nc2ccc(Cl)cc2)sc(C)c1C	15%	9	-3.8	0	-17
CCCCP(=O)(O)c1ccccc1	-5%	0	-1.3	5	-16	Arbovirus anti repeat=-1
O=[N+]([O-])c1ccn(-c2nc(-c3cccs3)cc(C(F)(F)F)n2)n1	-8%	6	0.7	-6	.
O=C(NCc1ccco1)c1ccc(CS(=O)(=O)c2cccc(C(F)(F)F)c2)o1	-7%	-2	-1.5	4	-18
O=[N+]([O-])c1ccc(Nc2nc(N3CCOCC3)nc(N3CCOCC3)n2)cc1	.	.	0.0	2	.
CCN(CC)C(=O)CC(c1ccc(N(C)C)cc1)c1c(OC)cc(OC)c2c(-c3ccccc3)cc(=O)oc12 (configuration not stated)	-7%	.	14	16	.
COc1ccc(C(=O)Nn2c(SCc3ccc([N+](=O)[O-])cc3)nc3ccccc3c2=O)cc1	-89%	-2	5.3	-9	-50
CCC(C(=O)NC1CCCC1)N(C(=O)Cn1nnc(-c2ccc(C)o2)n1)C(C)(C)C (configuration not stated)	-5%	3	3.3	-8	-31
O=C(C1CC(=O)N(C2CCCCC2)C1)N1CCC2(CC1)OCCO2 (configuration not stated)	.	1	-0.6	-10	-44
CCCC1=C(C(=O)OCC)C(c2sccc2C)n2ncnc2N1 (configuration not stated)	25%	.	0.3	0	.
O=C(Nc1ccc(S(=O)(=O)NCc2ccco2)cc1)c1ccc(F)cc1	.	.	3.0	-3	.
CC1(C)NC(=O)N(CC(=O)OCc2cc(=O)n3cc(Br)ccc3n2)C1=O	9%	4	.	-1	.
CC1CC(=O)NN=C1c1ccc(NCCO)c([N+](=O)[O-])c1 (configuration not stated)	-4%	-3	-0.4	38	-33
O=C(c1cccc(S(=O)(=O)N2CCCCC2)c1)N(CCc1ccccc1)Cc1ccccc1	.	.	6.8	5	.
O=S(=O)(c1cccc(NC(=S)N2CCN(c3cccc(Cl)c3)CC2)c1)C(F)F	2%	25	-1.5	3	-17
O=C(COC(=O)C1CC(O)CN1S(=O)(=O)c1ccc(Cl)cc1)c1ccccc1Cl (configuration not stated)	-2%	-2	0.8	5	-13
C/C(=N\N(c1ccccc1)c1ccccc1)c1ccco1	6%	1	8.7	0	.
CCCCC(=O)Nc1ccccc1N1CCN(c2ccc(F)cc2)CC1	.	.	6.7	-7	.
CCOC(=O)C(=O)Nc1nccs1	-8%	1	1.5	2	.
COCCn1nnnc1C(c1ccc(C)cc1)N1CCN(Cc2ccc3c(c2)OCO3)CC1 (configuration not stated)	-3%	-2	-16	.	-28
O=C(Nc1nc(SCc2ccc(F)cc2)ns1)c1ccco1	-8%	19	-1.0	-7	-38
CN(C)C(CNC(=O)c1ccc2ccccc2n1)c1ccccc1 (configuration not stated)	.	.	0.9	-2	.
CCc1ccc(S(=O)(=O)NCc2cccs2)cc1	.	.	2.1	7	.
